# Sa growth 42C = S. aureus growth inhibition. S. aureus RN4220 growth, OD600, 20 h, 42 °C; stronger effect = lower value. relative growth, % (concentration not given with the values). 170,000 compounds, 0.53% hits;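 active means growth at 42 °C up to 50% and 20 or more points under that at 30 °C, or under 10% at both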;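 further: 300 nL library stock went into each well; scaled to the means of positive and negative controls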
# HCMV UL50-53 inh = inhibitors of HCMV UL50-UL53 nuclear egress complex interaction; HTRF UL50-UL53 interaction, normalized percent inhibition; AID 1918969; 190,000 compounds, 0.15% hits; inhibition, % (test concentration not listed);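 active means both replicates at 50% or more, plus weaker picks with an unusually low signal ratio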;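 further: stock transfer was 100 nL into about 20 µL; 0% = negative control wells and 100% = wells with untagged competitor protein; inactives centre near -12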
# GIV-Gai inh = blocks GIV peptide binding to rat Galpha-i3 | Galpha-i3/FITC-GIV peptide fluorescence polarization, 90 min; stronger effect = lower value; scaled: aluminum fluoride 0%, vehicle 100% | percent of control (FP), % (no concentration beside the values) | 210,000 compounds, 0.42% hits | AID 1224905;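 active means replicate mean at 85% of control or lower, very high polarization wells dropped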;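 further: wells of about 15 µL received 100 nL stock; the first replicate is given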
# Target sequence (P08753 whole entry, looked up): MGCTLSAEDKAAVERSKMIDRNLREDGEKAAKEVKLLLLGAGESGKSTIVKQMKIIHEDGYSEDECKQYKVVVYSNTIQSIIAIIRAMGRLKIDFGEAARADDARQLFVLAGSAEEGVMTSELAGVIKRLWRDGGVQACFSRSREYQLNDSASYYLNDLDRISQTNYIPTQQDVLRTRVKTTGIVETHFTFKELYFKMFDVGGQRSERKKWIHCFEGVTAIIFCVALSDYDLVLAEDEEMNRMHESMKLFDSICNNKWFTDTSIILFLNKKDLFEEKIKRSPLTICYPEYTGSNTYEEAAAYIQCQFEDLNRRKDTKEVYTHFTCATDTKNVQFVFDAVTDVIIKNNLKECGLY
# Sa growth 42C second temp = second read-out of Sa growth 42C, no call of its own (marks repeat the call); relative growth, %; measured here: growth at 30 °C;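 optical density after 20 h as mean of two plates; 100% = untreated growth and lower means inhibition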
# An asterisk follows results filed as active; nt = not tested or not shown; & = joins results of further samples.
# Start of the listing, in advance, three compounds:
# The line under a structure holds: Sa growth 42C	Sa growth 42C second temp	HCMV UL50-53 inh	GIV-Gai inh
CC1CCN(S(=O)(=O)N2CCC(C(=O)NCc3ccccc3Cl)CC2)CC1
  104	95	nt	100
O=C(C1CCN(c2nc3ccccc3[nH]2)CC1)N1CCN(c2ccccc2)CC1
  89	63	nt	103
COc1ccc(-c2nc(CSc3nc4ccccc4n4c(C)nnc34)c(C)o2)cc1
  nt	nt	-29	102

# Results, previewed entries included:
# The line under a structure holds: Sa growth 42C	Sa growth 42C second temp	HCMV UL50-53 inh	GIV-Gai inh
CC1CCN(S(=O)(=O)N2CCC(C(=O)NCc3ccccc3Cl)CC2)CC1
  104	95	nt	100
O=C(C1CCN(c2nc3ccccc3[nH]2)CC1)N1CCN(c2ccccc2)CC1
  89	63	nt	103
COc1ccc(-c2nc(CSc3nc4ccccc4n4c(C)nnc34)c(C)o2)cc1
  nt	nt	-29	102
COc1ccc(N(C(=O)c2ccncc2)S(=O)(=O)c2ccc(OC)c(OC)c2)cc1
  92	90	nt	97
CCN(CC)CCNc1nc2c(c(=O)n(C)c(=O)n2C)n1Cc1c(Cl)cccc1Cl
  nt	nt	-19	102
N#CCSc1nc2ccccc2c(=O)n1CCCn1c(SCC#N)nc2ccccc2c1=O
  109	87	nt	98
CCc1cc(C(=O)Cc2nc3ccccc3s2)c(O)cc1O
  93	83	-56	nt
O=C(c1ccccc1Cl)N1CCC(c2nc3ccccc3s2)CC1
  106	80	-6&-4	99&102
CCc1ccc(NC(=O)N(C2CCCC2)C2CCN(C(C)=O)CC2)cc1
  100	87	-18	103
CCS(=O)(=O)c1ncc(Cl)c(C(=O)NCc2ccc(OC)cc2)n1
  102	36	nt	110
COc1ccc(Nc2ncc(C(=O)N3CCN(c4ccccc4OC)CC3)c3ccccc23)cc1
  103	92	-6	100
Cc1ccc(Cl)cc1NC(=O)CCn1cnc2ccccc2c1=O
  94	92	nt	113
CC1Oc2ccccc2N(CC(=O)c2ccccc2)C1=O (stereo unspecified)
  83	90	-10	101
COc1ccc2c(c1)c1c(c(=O)n(-c3cccc(C)c3)c(=O)n1CC(=O)NCC1CCCO1)n2C (stereo unspecified)
  102	86	nt	105
Cn1c(CCC(=O)NCc2ccc(F)cc2)nc2cc(S(=O)(=O)N3CCCCC3)ccc21
  104	93	-20	nt
Cc1c(-c2nnc(Nc3ccccc3)s2)sc2nc3n(c(=O)c12)CCC3
  91	86	-30	102
N#CC1=C2SCN(C3CCCCC3)CN2C(=O)CC1c1ccc(Br)cc1 (stereo unspecified)
  95	84	-40	103
O=C1CC(N2CCN(S(=O)(=O)c3ccc4c(c3)OCCO4)CC2)C(=O)N1c1cccc(C(F)(F)F)c1 (stereo unspecified)
  99	96	-34	nt
CCOC(=O)C1=C(C(F)(F)F)OC(N)=C(C#N)C1c1ccc(-c2ccccc2)cc1 (stereo unspecified)
  82	57	-22	nt
CC1Cc2ccccc2N1C(=O)CSCC(=O)O (stereo unspecified)
  104	93	nt	102
Cc1cc(N=Cc2ccccc2O)no1
  103	110	2	104
Cc1ccccc1NC(=O)Cn1nc(C)c2ccccc2c1=O
  80	88	nt	96
Cc1ccc(C(=O)Cc2ccccc2O)cc1
  99	74	-26	nt
CC(NC(=O)CCOc1ccccc1)c1ccc(-n2ccnc2)cc1 (stereo unspecified)
  110	89	-26	nt
Cc1noc(C)c1S(=O)(=O)N(CC(=O)NCc1ccccc1)c1ccc(C(C)C)cc1
  99	90	-32	103
COc1ccc(C2N=C(N3CCc4ccccc43)Nc3nc(C)cc(=O)n32)cc1 (stereo unspecified)
  96	85	-9&0	103&100
CCOC(=O)c1ccc(NC(=S)NCCCN2CCCC2=O)cc1
  87	84	-36	101
CCOc1ccc(NC23SCC(=O)C2CCc2ccccc23)cc1 (stereo unspecified)
  2.0*	2.6*	28	88
CC(C(=O)NCC1CCCO1)C1Sc2ccccc2N(Cc2ccccc2F)C1=O (stereo unspecified)
  129	95	1	99
O=c1cc(Sc2ccc(Cl)cc2)c2ccccc2o1
  99	87	-1	103
Cc1cc(C(F)(F)Cl)nc(-c2ccccc2)n1
  nt	nt	-14	100
CCc1c(C)nn2cn[n+](Cc3ccccc3)c2c1[O-]
  102	101	-17	nt
CC1CCCCC1NC(=O)c1nnc(Cc2ccc(Cl)cc2)o1 (stereo unspecified)
  104	91	1	95
CN1C2CCC1CC(NS(=O)(=O)c1ccc(F)cc1)C2 (stereo unspecified)
  84	83	-12	104
CCOC(=O)c1c(NC(=O)CSc2nc3ccccc3[nH]2)sc2c1CCCC2
  nt	nt	-12	105
CCCSCCCNC(=O)c1sc2nc(C)cc(C)c2c1-n1cccc1
  77	93	-1	95
O=C(Cn1c(=O)c2cccn2c2ccccc21)NCCc1c[nH]c2ccccc12
  nt	nt	-13	99
CC(Sc1nnc(-c2cc3ccccc3[nH]2)o1)C(=O)N1CCc2ccccc21 (stereo unspecified)
  nt	nt	-34	104
O=C(NCCCN1CCCC1)c1ccc2c(c1)N(Cc1ccccc1F)C(=O)c1ccccc1S2=O (stereo unspecified)
  103	66	-6	103
O=C(CCN1C(=O)NC2(CCCC2)C1=O)N1CCC(c2nc3ccccc3s2)CC1
  96	85	3	nt
Cc1cc(=O)oc2cc(OCC(=O)N(C)C)c(Cl)cc12
  99	79	5	105
Nc1ccccc1SCc1noc(-c2cccs2)n1
  111	99	-9	102
Cc1ccc2nc(SCC(=O)Nc3ccc(Br)cc3)[nH]c2c1
  nt	nt	-6	105
CCOC(=O)c1nc2sc3c(c2c(=O)[nH]1)CCC(C)C3 (stereo unspecified)
  108	77	-21	nt
Cc1noc(C)c1S(=O)(=O)N1CCCC1
  99	94	-11	108
O=C(O)CSc1nnc2c3ccccc3n(Cc3ccccc3)c2n1
  94	89	-25	99
COc1cc(/C=N/N=C/c2c[nH]c(=O)c(C#N)c2Nc2ccccc2)ccc1O
  98	93	-37	101
CC1CCN(Cc2c(O)ccc3c(=O)c(-c4ccc(Cl)cc4)c(C(F)(F)F)oc23)CC1
  107	93	-30	107
CCOc1ccc(CN(CCc2ccc3c(c2)OCO3)Cc2cc(OC)cc(OC)c2)cc1
  89	88	5	105
Cc1ccccc1OC(=O)c1cc(-c2ccc3c(c2)OCCO3)on1
  45	41	-6&-13	100&99

# (further entries)
# The line under a structure holds: Sa growth 42C	Sa growth 42C second temp	HCMV UL50-53 inh	GIV-Gai inh
CCCCC(c1nnnn1CCc1ccccc1)N1CCN(C2CCCC2)CC1 (stereo unspecified)
  101	92	-3	100
O=C(NCCc1ccc(Cl)cc1)C1CCN(S(=O)(=O)c2ccc3[nH]ccc3c2)CC1
  88	74	nt	98
COc1cc(OC)c(C(=O)NC2CC(C)(C)NC(C)(C)C2)cc1OC
  103	78	-13	105
CCc1ccc(Cn2nnc3c(=O)[nH]c(C4CCCN(C(=O)c5cccc(Cl)c5)C4)nc32)cc1 (stereo unspecified)
  56	48	-12	101
Cc1nn(-c2ccccc2)nc1C(=O)c1c(C)[nH]n(-c2ccccc2)c1=O
  84	80	-28	106
Cn1c(=O)cc(SCC(=O)NCC2CCCO2)c2ccccc21 (stereo unspecified)
  124	91	nt	102
CCC(C)NC(=O)c1cnn2c(C(F)(F)F)cc(-c3ccccc3)nc12 (stereo unspecified)
  71	72	nt	102
CCC1CCCCN1CCCNC(=O)c1c(O)nc2c(C)cccn2c1=O (stereo unspecified)
  70	86	-19	97
Cn1c(CO)cnc1SCC(=O)c1ccc(Br)cc1
  nt	nt	-8	101
NCCCN1CCc2ccccc21
  157	1	-16	105
CC/C(C)=N/NC(=O)c1ccc(CSc2nncn2C)cc1
  107	81	-23	nt
Cc1nnc(SCC(=O)c2c(-c3ccccc3)n(C)c3ccccc23)n(N)c1=O
  95	87	-25	nt
COc1ccccc1N1CCN(C(=O)COc2c(C)cccc2C)CC1
  104	103	3	103
COc1cccc(C2NC(=O)NC(C)=C2C(=O)Nc2ccccc2C)c1OC (stereo unspecified)
  88	98	7	104
O=C(NCCN1CCCC1)c1ccco1
  95	80	1	97
ClCC1=Nc2cccc3cccc(c23)N1
  98	31	-22	nt
COc1cc(OC)c(NC(=O)N2CCC(CN3CCOCC3)CC2)cc1Cl
  99	93	nt	108
CC(=O)NC(=O)c1cc2c(ccc3ccccc32)oc1=Nc1ccc(C(C)=O)cc1
  nt	nt	-20	105
C=CCc1c(C)[nH]c2c(Cl)cccc2c1=O
  89	70	-1	nt
CSc1nc2c([nH]c3ccccc32)c(=O)n1-c1ccc(F)cc1
  111	99	nt	109
CC(=O)Nc1nc2ccc(CCC(=O)NCc3ccc4c(c3)OCO4)cc2s1
  nt	nt	-15	98
COc1cccc(NC(=O)Cn2c(=O)ccc3cc(S(=O)(=O)N4CCC(C)CC4)ccc32)c1
  104	87	nt	97
CCOc1ccc(C(=O)NCCn2c(C(F)(F)F)nc3ccccc32)cc1
  nt	nt	-30	106
CN(C)S(=O)(=O)c1cccc(C(=O)OCC(=O)NC2CCCC2)c1
  84	89	-18	nt
Cc1cc(C)n(CCc2nc3c4ccccc4n(Cc4ccc(Cl)cc4)c(=O)n3n2)n1
  98	91	10	105&102
Cc1cc2[nH]c(=O)c(=O)[nH]c2cc1S(=O)(=O)NCc1ccc(F)cc1
  108	104	nt	109
Cc1oc2ncn(C)c(=O)c2c1C(=O)N(C)c1ccccc1F
  84	94	nt	105
Cc1ccc(NC(=O)c2sc(-n3nc(C)c(Cc4ccc5c(c4)OCO5)c3C)nc2C)cc1Cl
  97	92	13	99
COc1cccc(CN2C(=O)NC3(CCSC3)C2=O)c1 (stereo unspecified)
  103	98	-14	nt
Cc1cc(OCC(O)CN(C(C)C)C(C)C)c(C(C)C)cc1Cl (stereo unspecified)
  96	79	-28	nt
O=C1CC(c2ccc(F)cc2)CC2=C1C(c1ccccc1)N=C(Nc1nc3ccccc3o1)N2 (stereo unspecified)
  104	95	-7	109
O=C(NCCCc1ccccc1)c1nn(-c2ccccc2)nc1CO
  86	93	-18	99
CCOC(=O)N1CCC(NC(=O)c2ccc3snnc3c2)CC1
  115	90	1	112
O=c1[nH]c2cc(-c3noc(-c4ccc5c(c4)OCO5)n3)ccc2n1C1CCCC1
  nt	nt	-32	108
Cc1ccccc1Nc1nc(N)c(C(=O)c2ccccc2Cl)s1
  83	93	nt	107
O=C(CSc1ccccc1)NCc1ccc2c(c1)CCN2C(=O)c1ccc(Cl)cc1
  81	98	nt	105
CC1=C(C#N)C(c2ccc3c(c2)OCO3)C2=C(CCCC2=O)N1 (stereo unspecified)
  84	70	-48	110
CC(=O)Nc1ccccc1-c1nc2cc(C#N)c(C#N)cc2[nH]c1=O
  92	76	-108	99
CCn1c(=O)c(CCC(=O)NCc2ccc3c(c2)OCO3)c(C)c2c(C)nn(-c3cccc(C)c3)c21
  99	85	-25	102
C=CCn1c(SCC(=O)Nc2ccc3c(c2)OCCO3)nc2scc(-c3ccc(OC)cc3)c2c1=O
  nt	nt	15	108
CC(C)S(=O)(=O)c1nnn(-c2cc(Cl)cc(Cl)c2)c1N
  99	76	2	99
O=C(c1ccccc1)C(CC(=O)N1CCOCC1)c1ccccc1 (stereo unspecified)
  110	88	-7	nt
Cc1ccc(C2CC(=O)N(C)c3c2c(C)nn3-c2nc3ccccc3s2)cc1 (stereo unspecified)
  97	98	-13&9	102&107
Clc1ccc(-c2noc(CSc3ccc(-c4ccc5c(c4)OCO5)nn3)n2)cc1
  nt	nt	-17	105
O/N=C1/C(c2ccccc2)=Nc2ncnn2C1c1ccccc1 (stereo unspecified)
  101	97	-18	nt
Cc1ccc(C(=O)Nc2ccccc2C(=O)OCc2cc(=O)n3oc(C)cc3n2)cc1
  nt	nt	-19	98
COc1ccc(NC(=O)CCOc2ccccc2)cc1
  86	85	-18	106
O=C(NCc1ccc(Br)cc1)C1CCCN(C(=O)c2cc(-c3ccncc3)n[nH]2)C1 (stereo unspecified)
  nt	nt	3	108
Cc1cc(C)n2nc(SC(C)C(=O)NC3CCCCCCC3)nc2n1 (stereo unspecified)
  76	77	nt	98
CCNCc1ccc(-c2cccc(Cl)c2)o1
  126	90	nt	106

# (further entries)
# The line under a structure holds: Sa growth 42C	Sa growth 42C second temp	HCMV UL50-53 inh	GIV-Gai inh
COc1cccc2cc(C(=O)N3CCN(c4cc(Cl)ccc4C)CC3)c(=O)oc12
  88	91	-5	nt
COc1ccc(NC(=O)NC2CCCc3ccccc32)cc1OC (stereo unspecified)
  98	89	-8	107
Cn1c(=O)c(-c2noc(-c3ccc(Cl)cc3)n2)cn(-c2ccccc2)c1=O
  93	87	-30	102
Cc1nc(Cc2nnc(SCc3cc(=O)oc4cc5c(cc34)CCC5)o2)cs1
  94	92	-43	nt
O=C(OC1CSc2nc3ccccc3n2C1)c1ccco1 (stereo unspecified)
  114	83	-43	100

# Arranged by SMILES length (low to high): 3 of the compounds above.
# The line under a structure holds: Sa growth 42C	Sa growth 42C second temp	HCMV UL50-53 inh	GIV-Gai inh
CCNCc1ccc(-c2cccc(Cl)c2)o1
  126	90	nt	106
COc1ccc(NC(=O)NC2CCCc3ccccc32)cc1OC (stereo unspecified)
  98	89	-8	107
Cn1c(=O)c(-c2noc(-c3ccc(Cl)cc3)n2)cn(-c2ccccc2)c1=O
  93	87	-30	102

# Source: PubChem BioAssay (ICCB-Longwood Screening Facility, Harvard Medical School)
